A1 apoptosis 2: A1 inhibitors via caspase activation, primary screen, cell-based, luminescence, HTS, two replicates | MEF A1-2A-BIM cells, caspase-Glo luminescence, 3 h; percent of clofoctol response, DMSO zero | caspase activation, % (concentration not given with the values) | 24,000 tested, under 10 active; in the data active = caspase activation above about 5.9%;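 also: wells of about 30 µL received 50 nL stock; the first replicate is given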
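Test system – A1-2A-BIM-expressing MEF cells · Input – 2500 cells/well · Medium – RPMI-1640 growth medium with 10% FBS · Compound dosing – 50 nL pinned compound · Timing – 3 h compound exposure at 37 °C · Technique – Caspase-Glo luminescence (DEVD substrate) · Evaluation – Caspase-3/7 activity from luminescence increase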
* = called active by the depositor. These rows are one share of the data; the hit share may differ from the screen's.

SMILES	A1 apoptosis 2
C[C@@H]1CCCCO[C@@H](CN(C)C(=O)NC2CCCCC2)[C@@H](C)CN([C@H](C)CO)C(=O)c2cc(NC(=O)c3ccccc3)ccc2O1	-0.1
C[C@H]1CCCCO[C@@H](CN(C)S(=O)(=O)c2ccccc2)[C@@H](C)CN([C@@H](C)CO)C(=O)c2cc(NC(=O)Cc3ccccc3)ccc2O1	1.0
C[C@H](CO)N1C[C@H](C)[C@@H](CN(C)Cc2ccc3c(c2)OCO3)Oc2ccc(NC(=O)CCN3CCOCC3)cc2C1=O	-1.2
C[C@H](CO)N1C[C@H](C)[C@H](CN(C)S(=O)(=O)c2ccc(-c3ccccc3)cc2)OCc2cnnn2CCCC1=O	-0.4
C[C@H](CO)N1C[C@H](C)[C@H](CN(C)S(=O)(=O)c2ccccc2)Oc2ccc(NC(=O)Nc3ccc4c(c3)OCO4)cc2C1=O	0.6
C[C@@H]1CCCCO[C@@H](CN(C)C(=O)Nc2ccc3c(c2)OCO3)[C@@H](C)CN([C@@H](C)CO)C(=O)c2cc(NC(=O)Nc3ccc4c(c3)OCO4)ccc2O1	-0.7
C[C@H](CO)N1C[C@H](C)[C@@H](CN(C)Cc2ccc3c(c2)OCO3)OCc2cn(nn2)CCCC1=O	0.2
C[C@@H]1CN([C@H](C)CO)C(=O)c2cccc(NC(=O)Nc3cccc4ccccc34)c2O[C@@H]1CN(C)C(=O)NC1CCCCC1	-0.5
C[C@@H]1CCCCO[C@@H](CN(C)C(=O)CCCN(C)C)[C@@H](C)CN([C@H](C)CO)C(=O)c2cc(NC(=O)Nc3ccc(F)cc3)ccc2O1	-2.0
C[C@H](CO)N1C[C@H](C)[C@@H](CN(C)C)Oc2ccc(NC(=O)NC3CCCCC3)cc2C1=O	-0.7
COC(=O)CCCCCCC(=O)N/N=C/c1cc(C)ccc1O	0.9
COc1ccc(S(=O)(=O)Nc2ccc3c(c2)CC(=O)N([C@@H](C)CO)C[C@@H](C)[C@@H](CN(C)S(=O)(=O)c2ccc(OC)cc2)O3)cc1	-0.1
C[C@H](CO)N1C[C@H](C)[C@@H](CN(C)Cc2ccncc2)Oc2ccc(NC(=O)NC3CCCCC3)cc2C1=O	-1.4
CNC[C@H]1Oc2ccc(NS(C)(=O)=O)cc2C(=O)N([C@H](C)CO)C[C@@H]1C	0.0
C[C@@H]1CN([C@H](C)CO)C(=O)c2cccc(NS(=O)(=O)c3cccs3)c2O[C@H]1CN(C)Cc1ccc(Oc2ccccc2)cc1	-0.7
O=C1O[C@@H](c2ccccc2)[C@@H](c2ccccc2)N2[C@@H](c3ccccc3OCCO)[C@]3(C(=O)Nc4ccccc43)[C@@H](C(=O)NC[C@H](O)c3ccccc3)[C@H]12	-0.1
C[C@@H]1CN([C@H](C)CO)C(=O)Cc2cc(NC(=O)C3CC3)ccc2O[C@@H]1CN(C)S(=O)(=O)c1ccc(Cl)cc1	-0.4
Cc1noc(C)c1NC(=O)N(C)C[C@@H]1Oc2ccc(NS(=O)(=O)c3c(C)noc3C)cc2C(=O)N([C@H](C)CO)C[C@H]1C	-0.7
C[C@@H]1CCCCO[C@@H](CN(C)CC2CC2)[C@H](C)CN([C@H](C)CO)C(=O)c2cc(NC(=O)CCCN(C)C)ccc2O1	-0.1
C[C@@H]1CN([C@H](C)CO)C(=O)c2cc(NC(=O)NC3CCCCC3)ccc2O[C@@H](C)CCCCO[C@H]1CN(C)C(=O)C1CCCCC1	-0.4
C[C@@H]1CN([C@@H](C)CO)C(=O)CCCn2nncc2CO[C@@H]1CN(C)Cc1ccc2c(c1)OCCN2C	0.1
C[C@@H]1CN([C@@H](C)CO)C(=O)c2cc(NC(=O)Nc3ccc(C(F)(F)F)cc3)ccc2O[C@@H]1CN(C)Cc1ccc(C(F)(F)F)cc1	-0.3
CNC[C@@H]1OCCCC[C@@H](C)Oc2ccc(NS(=O)(=O)c3cccs3)cc2C(=O)N([C@H](C)CO)C[C@H]1C	-0.4
CNC[C@H]1OCCCC[C@@H](C)Oc2ccc(NC(=O)Nc3c(C)noc3C)cc2C(=O)N([C@H](C)CO)C[C@H]1C	-0.8
O=S(=O)(c1ccc2ccccc2c1)N1CCN(Cc2ccc(OCCO)cc2)CC1	0.9

The final 4 compounds of the part before open the next one:
SMILES	A1 apoptosis 2
C[C@@H]1CN([C@@H](C)CO)C(=O)c2cc(NC(=O)Nc3ccc(C(F)(F)F)cc3)ccc2O[C@@H]1CN(C)Cc1ccc(C(F)(F)F)cc1	-0.3
CNC[C@@H]1OCCCC[C@@H](C)Oc2ccc(NS(=O)(=O)c3cccs3)cc2C(=O)N([C@H](C)CO)C[C@H]1C	-0.4
CNC[C@H]1OCCCC[C@@H](C)Oc2ccc(NC(=O)Nc3c(C)noc3C)cc2C(=O)N([C@H](C)CO)C[C@H]1C	-0.8
O=S(=O)(c1ccc2ccccc2c1)N1CCN(Cc2ccc(OCCO)cc2)CC1	0.9
Cc1noc(C)c1S(=O)(=O)N(C)C[C@@H]1OCCCC[C@H](C)Oc2ccc(NC(=O)NC(C)C)cc2C(=O)N([C@@H](C)CO)C[C@H]1C	-0.5
O=C1O[C@H](c2ccccc2)[C@H](c2ccccc2)N2[C@H]1[C@@H](C(=O)O)[C@]1(C(=O)Nc3ccccc31)[C@H]2c1ccccc1OCCO	-1.1
C[C@H](CO)N1C[C@H](C)[C@H](CN(C)Cc2ccc(Cl)c(Cl)c2)Oc2ccc(NC(=O)CCC(F)(F)F)cc2CC1=O	-0.1
COc1ccc(S(=O)(=O)N(C)C[C@H]2Oc3c(NS(=O)(=O)c4ccc(F)cc4)cccc3C(=O)N([C@H](C)CO)C[C@H]2C)cc1	-0.4
Cc1noc(C)c1NC(=O)Nc1cccc2c1O[C@@H](CN(C)C(=O)NC1CCCCC1)[C@H](C)CN([C@H](C)CO)C2=O	-0.1
C[C@@H]1CN([C@@H](C)CO)C(=O)c2cccc(NC(=O)Nc3ccccc3)c2O[C@H]1CN(C)C(=O)Nc1ccccc1	0.2
CC(C)NC(=O)Nc1ccc2c(c1)C(=O)N([C@H](C)CO)C[C@H](C)[C@H](CN(C)C(=O)Nc1ccc3c(c1)OCO3)OCCCC[C@H](C)O2	0.6
COc1ccc(S(=O)(=O)Nc2ccc3c(c2)C(=O)N([C@H](C)CO)C[C@@H](C)[C@H](CN(C)Cc2ccc(C(F)(F)F)cc2)OCCCC[C@@H](C)O3)cc1	-0.2
C[C@@H]1CN([C@H](C)CO)C(=O)c2cccc(NC(=O)CCCCCC(=O)Nc3ccccc3N)c2O[C@@H]1CN(C)Cc1ccc(-c2ccccc2)cc1	-0.3
CC(C)NC(=O)N(C)C[C@H]1Oc2ccc(NC(=O)Nc3ccc(C(F)(F)F)cc3)cc2CC(=O)N([C@H](C)CO)C[C@H]1C	1.2
C[C@@H]1CCCCO[C@@H](CN(C)S(=O)(=O)c2ccc(F)cc2)[C@@H](C)CN([C@@H](C)CO)C(=O)c2cc(NC(=O)Nc3cccc4ccccc34)ccc2O1	0.1
CNC[C@H]1OCCCC[C@@H](C)Oc2ccc(NC(=O)Nc3ccccc3)cc2C(=O)N([C@H](C)CO)C[C@@H]1C	-0.9
CC(C)NC(=O)Nc1cccc2c1O[C@@H](CN(C)Cc1ccccc1)[C@@H](C)CN([C@H](C)CO)C2=O	-1.3
C[C@H]1CN([C@@H](C)CO)C(=O)Cc2cc(NS(=O)(=O)c3cn(C)cn3)ccc2O[C@H]1CN(C)S(=O)(=O)c1ccc(Cl)cc1	1.0
C[C@@H]1CN([C@@H](C)CO)C(=O)c2cccc(NS(=O)(=O)c3ccc(Cl)cc3)c2O[C@H]1CN(C)C(=O)Nc1ccc(C(F)(F)F)cc1	-0.2
Cc1noc(C)c1S(=O)(=O)N(C)C[C@H]1Oc2ccc(NS(=O)(=O)c3cccs3)cc2CC(=O)N([C@@H](C)CO)C[C@H]1C	-0.3
C[C@H](CO)N1C[C@H](C)[C@@H](CN(C)Cc2ccncc2)Oc2ccc(NC(=O)Cc3cn(C)c4ccccc34)cc2CC1=O	-0.1
C[C@@H]1CN([C@@H](C)CO)C(=O)c2cc(NC(=O)Nc3ccc4c(c3)OCO4)ccc2O[C@@H](C)CCCCO[C@H]1CN(C)C	0.4
C[C@@H]1CN([C@@H](C)CO)C(=O)c2cccc(NC(=O)C3CCOCC3)c2O[C@@H]1CN(C)C	-0.5
C[C@H]1CN([C@@H](C)CO)C(=O)c2cc(NC(=O)CCN3CCOCC3)ccc2O[C@H]1CN(C)C(=O)Nc1ccccc1	-0.5
C[C@@H]1CCCCO[C@@H](CN(C)C(=O)C2CCCCC2)[C@@H](C)CN([C@H](C)CO)C(=O)c2cc(N(C)C)ccc2O1	1.0
C[C@H](CO)N1C[C@H](C)[C@H](CN(C)C(=O)NC2CCCCC2)Oc2ccc(NS(=O)(=O)c3ccccc3)cc2C1=O	0.0
C[C@@H]1CN([C@@H](C)CO)C(=O)Cc2cc(NC(=O)C3CCCCC3)ccc2O[C@H]1CN(C)Cc1ccc(C(=O)O)cc1	-0.2
C[C@@H]1CCCCO[C@@H](CN(C)S(=O)(=O)c2cn(C)cn2)[C@@H](C)CN([C@H](C)CO)C(=O)c2cc(NC(=O)c3ccccc3)ccc2O1	-0.5
C[C@@H]1CN([C@H](C)CO)C(=O)c2cc(NS(C)(=O)=O)ccc2O[C@@H](C)CCCCO[C@@H]1CN(C)C(=O)CCC(F)(F)F	0.4
SMILES	A1 apoptosis 2
CC(C)=CCC[C@H](C)C/C=N/NC(=O)CCCCCCC(=O)O	-0.1
CCO[C@@H]1OC(C(=O)N2CCN(Cc3ccc4c(c3)OCO4)CC2)=C[C@H](C2CCCCC2)[C@H]1CCCO	1.0
COc1ccc(S(=O)(=O)N(C)C[C@@H]2Oc3c(NC(=O)Nc4ccc(C(F)(F)F)cc4)cccc3C(=O)N([C@@H](C)CO)C[C@@H]2C)cc1	0.0
C=C(C)[C@@H]1CC=C(/C=N/NC(=O)CCCCCC(=O)O)CC1	-0.8
Cc1ccc(S(=O)(=O)Nc2ccc3c(c2)C(=O)N([C@@H](C)CO)C[C@@H](C)[C@H](CN(C)C(=O)Cc2ccccc2)OCCCC[C@H](C)O3)cc1	-0.5
C[C@H]1CN([C@@H](C)CO)C(=O)c2cc(NS(=O)(=O)c3cccs3)ccc2O[C@@H]1CN(C)C	0.3
C[C@@H]1CN([C@@H](C)CO)C(=O)c2cc(NS(=O)(=O)c3ccccc3)ccc2O[C@@H](C)CCCCO[C@@H]1CN(C)C(=O)c1ccccc1	0.8
CC(C)NC(=O)N(C)C[C@H]1Oc2c(NC(=O)Nc3ccccc3)cccc2C(=O)N([C@@H](C)CO)C[C@@H]1C	1.1
C[C@@H]1CN([C@@H](C)CO)C(=O)c2cc(NC(=O)CCC(F)(F)F)ccc2O[C@@H]1CN(C)C(=O)NC1CCCCC1	1.3
Cc1ccc(S(=O)(=O)Nc2cccc3c2O[C@@H](CN(C)Cc2ccc(-c4ccccc4)cc2)[C@H](C)CN([C@@H](C)CO)C3=O)cc1	-0.4
CNC[C@@H]1Oc2ccc(NC(=O)Nc3ccc(C(F)(F)F)cc3)cc2C(=O)N([C@H](C)CO)C[C@H]1C	-0.8
COc1ccc(S(=O)(=O)Nc2cccc3c2O[C@@H](CN(C)S(=O)(=O)c2ccc(Cl)cc2)[C@@H](C)CN([C@H](C)CO)C3=O)cc1	0.2
C[C@@H]1CCCCO[C@@H](CN(C)S(=O)(=O)c2ccccc2)[C@@H](C)CN([C@@H](C)CO)C(=O)c2cc(NC(=O)C3CCCCC3)ccc2O1	-0.2
C[C@@H]1CCCCO[C@H](CN(C)S(=O)(=O)c2cccs2)[C@@H](C)CN([C@H](C)CO)C(=O)c2cc(NC(=O)c3ccncc3)ccc2O1	-0.4
Cc1noc(C)c1NC(=O)N(C)C[C@H]1Oc2ccc(NC(=O)Cn3cnnn3)cc2C(=O)N([C@H](C)CO)C[C@H]1C	0.2
COc1ccc(NC(=O)N(C)C[C@@H]2Oc3c(NC(=O)CCCCCC(=O)Nc4ccccc4N)cccc3C(=O)N([C@@H](C)CO)C[C@H]2C)cc1	1.7
C[C@H](CO)N1C[C@H](C)[C@H](CN(C)S(C)(=O)=O)Oc2ccc(NS(=O)(=O)c3cn(C)cn3)cc2C1=O	-0.4
CC(C)NC(=O)N(C)C[C@H]1Oc2ccc(NC(=O)Nc3ccccc3)cc2CC(=O)N([C@H](C)CO)C[C@@H]1C	0.2
COc1ccc(NC(=O)Nc2ccc3c(c2)C(=O)N([C@H](C)CO)C[C@H](C)[C@H](CN(C)C(=O)CCC(F)(F)F)OCCCC[C@@H](C)O3)cc1	-1.1
COc1ccc(NC(=O)N(C)C[C@H]2OCCCC[C@@H](C)Oc3ccc(NC(=O)NC(C)C)cc3C(=O)N([C@@H](C)CO)C[C@H]2C)cc1	-1.1
C[C@@H]1CN([C@@H](C)CO)C(=O)c2cc(NS(=O)(=O)c3ccc(F)cc3)ccc2O[C@H]1CN(C)S(=O)(=O)c1ccccc1	-0.7

An excerpt of these results, as labelled records:
CC(C)=CCC[C@H](C)C/C=N/NC(=O)CCCCCCC(=O)O
  A1 apoptosis 2: -0.1
CCO[C@@H]1OC(C(=O)N2CCN(Cc3ccc4c(c3)OCO4)CC2)=C[C@H](C2CCCCC2)[C@H]1CCCO
  A1 apoptosis 2: 1.0
COc1ccc(S(=O)(=O)N(C)C[C@@H]2Oc3c(NC(=O)Nc4ccc(C(F)(F)F)cc4)cccc3C(=O)N([C@@H](C)CO)C[C@@H]2C)cc1
  A1 apoptosis 2: 0.0
C=C(C)[C@@H]1CC=C(/C=N/NC(=O)CCCCCC(=O)O)CC1
  A1 apoptosis 2: -0.8

Screening results deposited in PubChem by Broad Institute.
